Screening results (PubChem)
KCNQ2 inh = KCNQ2 potassium channel inhibitors, primary screen, cell-based, CHO-K1, FluxOR thallium flux, B-score (AID 2156); 20 min; hits give low values; only compounds with negative scores are shown here; some inactives read as strong as hits; 310,000 tested, 1.1% active; B-score at 10 µM;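 active = fluorescence ratio B-score at most minus 3 library SDs, with starting brightness B-score within 2 library SDs, cut at about -5.5 in these data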
Target sequence (O88943 whole entry, looked up): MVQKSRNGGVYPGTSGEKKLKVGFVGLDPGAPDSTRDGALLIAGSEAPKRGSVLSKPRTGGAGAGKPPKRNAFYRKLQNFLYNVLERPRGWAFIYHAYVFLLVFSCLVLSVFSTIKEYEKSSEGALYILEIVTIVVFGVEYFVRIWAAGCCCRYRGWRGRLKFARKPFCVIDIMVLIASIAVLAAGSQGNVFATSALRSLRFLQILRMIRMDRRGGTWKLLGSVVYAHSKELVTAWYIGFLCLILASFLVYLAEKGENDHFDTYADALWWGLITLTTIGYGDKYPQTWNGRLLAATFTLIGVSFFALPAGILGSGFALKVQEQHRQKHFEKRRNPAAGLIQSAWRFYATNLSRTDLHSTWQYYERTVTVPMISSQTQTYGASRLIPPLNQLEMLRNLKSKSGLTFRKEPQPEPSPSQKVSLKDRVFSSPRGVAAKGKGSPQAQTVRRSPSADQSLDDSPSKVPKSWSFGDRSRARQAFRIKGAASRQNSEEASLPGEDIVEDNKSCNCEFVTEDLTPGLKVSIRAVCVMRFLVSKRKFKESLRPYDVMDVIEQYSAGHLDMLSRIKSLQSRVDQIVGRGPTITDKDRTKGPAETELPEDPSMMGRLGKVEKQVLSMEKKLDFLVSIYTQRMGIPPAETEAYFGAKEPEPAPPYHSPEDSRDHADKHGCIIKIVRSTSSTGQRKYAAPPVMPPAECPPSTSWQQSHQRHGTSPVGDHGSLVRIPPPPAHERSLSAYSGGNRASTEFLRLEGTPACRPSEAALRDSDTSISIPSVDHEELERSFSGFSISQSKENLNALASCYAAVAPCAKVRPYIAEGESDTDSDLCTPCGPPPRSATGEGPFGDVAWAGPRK
KCNQ2 inh baseline = recorded beside KCNQ2 inh, whose call it bears; B-score; measured here: initial fluorescence intensity artifact check;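 brightness before thallium and not channel activity; 0 = typical well and far values either way flag optical interference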
Active calls of the source: *; i = inactive. Not all compounds are listed; the hit share may differ from the screen's.

Order of results – KCNQ2 inh	KCNQ2 inh baseline
> CCn1cc(CN2CCCC(C(=O)Nc3cccc(-c4cc5ccccc5[nH]4)c3)C2)cn1 (configuration not stated)
    i	-1.9
> CCn1cnc2cc(NS(=O)(=O)c3ccc(OC)c(OC)c3)ccc21
    i	0.24
> COc1ccc2nc(C)cc(N3CCC(C(N)=O)CC3)c2c1
    i	0.01
> COC(=O)C1=C(N)Oc2cc(C)n(CCc3ccccc3)c(=O)c2C1c1cccnc1 (configuration not stated)
    i	1.1
> O=C(Nc1ccc(Cl)c(C(F)(F)F)c1)C(=O)N1CCCCC1
    i	0.48
> O=[N+]([O-])c1ccc(-c2nc(NCC3CCCO3)c3ccccc3n2)cc1 (configuration not stated)
    i	0.57
> CCc1ccc(CN(C)CC(=O)Nc2ccc3c(c2)CCC3)cc1
    i	-0.29
> O=C(C1CCN(S(=O)(=O)c2cccc3nsnc23)CC1)N1CCc2ccccc21
    i	0.75
> COc1ccc2c(c1)-c1nc(/N=C/c3c(O)ccc4ccccc34)sc1CC2
    i	-7.2
> CCN(CC(=O)Nc1c(F)cccc1F)C(=O)CNC(=O)c1ccc(Br)o1
    i	-2.3
> COc1ccc(CCC(=O)NCc2ccco2)cc1
    i	0.5
> CN(c1ccccc1C(=O)N1CCN(c2ccccc2F)CC1)S(=O)(=O)c1ccccc1
    i	-1.2
> N#Cc1ccc(-c2ccc(F)cc2)nc1Sc1ccccc1
    i	-0.41
> Cc1nc2cc(NC(=O)N3CCC(c4ccccc4)C3)ccc2n1C (configuration not stated)
    i	1
> CCCc1cc(C(=O)N2CCCC(Nc3ccc(C)c(C)c3)C2)n(C)n1 (configuration not stated)
    i	0.43

Part of the list above in order of number of heavy atoms, rising.
Order of results – KCNQ2 inh	KCNQ2 inh baseline
> N#Cc1ccc(-c2ccc(F)cc2)nc1Sc1ccccc1
    i	-0.41
> Cc1nc2cc(NC(=O)N3CCC(c4ccccc4)C3)ccc2n1C (configuration not stated)
    i	1
> O=[N+]([O-])c1ccc(-c2nc(NCC3CCCO3)c3ccccc3n2)cc1 (configuration not stated)
    i	0.57

Retrieved by structure from the list above (four):
Order of results – KCNQ2 inh	KCNQ2 inh baseline
> CCCc1cc(C(=O)N2CCCC(Nc3ccc(C)c(C)c3)C2)n(C)n1 (configuration not stated)
    i	0.43
> CCn1cnc2cc(NS(=O)(=O)c3ccc(OC)c(OC)c3)ccc21
    i	0.24
> CN(c1ccccc1C(=O)N1CCN(c2ccccc2F)CC1)S(=O)(=O)c1ccccc1
    i	-1.2
> CCc1ccc(CN(C)CC(=O)Nc2ccc3c(c2)CCC3)cc1
    i	-0.29

Next section.
Order of results – KCNQ2 inh	KCNQ2 inh baseline
> O=C(CCNC(=O)C1CCN(S(=O)(=O)c2ccccc2)CC1)NCc1ccc(Cl)cc1
    i	-2.2
> CCc1ccc(NC(=O)c2ccccc2Br)cc1
    i	0.76
> CCOC(=O)c1c(-c2ccc(C)o2)csc1NC(=S)NC(=O)c1ccc(F)cc1
    i	0.41
> Cc1ccccc1-c1nnc(-c2ccc(Br)cc2)o1
    i	2.2
> Cc1nn(CC(=O)Nc2nccs2)c(C)c1[N+](=O)[O-]
    i	-2.1
> Cc1cc(Cl)ccc1C(=O)C1CCCN(C(=O)CCN2CCCO2)C1 (configuration not stated)
    i	0.24
> CCN(CC)S(=O)(=O)c1ccc(NC(=O)Cn2c(=O)sc3ccccc32)cc1
    i	-2
> CCn1nc(C)c(/C=N/NC(=O)Cc2ccc(Cl)cc2)c1C
    i	-0.17
> CC(C)C[C@H](NC(=O)N1CCn2c1nc1ccccc12)C(=O)N1CCCCC1
    i	-1.5
> CC(C)CC(=O)NC(=S)Nc1cc(C(F)(F)F)ccc1N1CCOCC1
    i	0.85
> Nc1nonc1-c1nc2ccccc2n1CC(=O)N/N=C\c1ccc(-c2ccc(Cl)cc2)o1
    i	2.6
> C/C(=N\Nc1ncc(Cl)cc1Cl)c1cccs1
    i	1.9
> O=C(N/N=C/C(Cl)=C/c1ccc([N+](=O)[O-])cc1)C(=O)Nc1cccc(C(=O)O)c1
    i	1.8
> Cc1ccc(-c2nnc(CSc3nc(C(C)C)nc4sc(C)c(C)c34)o2)cc1
    i	2.2
> COC(=O)c1c(NC(=O)c2ccc(OC(C)C)cc2)sc2c1CC(C)(C)NC2(C)C
    i	-0.96
> CC(C)C1CC(C(F)(F)F)n2nc(C(=O)O)cc2N1 (configuration not stated)
    i	0.62
> COc1cccc(CNC(=O)CCC2CCCN(C(=O)c3ccc(F)c(Cl)c3)C2)c1 (configuration not stated)
    i	-1.3
> COc1ccc(C(c2nnnn2C2CCCC2)N2CCC(C)CC2)c(OC)c1 (configuration not stated)
    i	1.7
> O=C(CN(Cc1ccccc1)S(=O)(=O)c1ccccc1)N/N=C/c1ccccc1[N+](=O)[O-]
    i	-1
> O=C(CCCCCN1C(=O)CCC1=O)NCc1ccccc1
    i	1.8
> O=C(NCCn1cccn1)C1CCC(=O)N(CCc2ccccc2)C1 (configuration not stated)
    i	0.79
> CCCCNc1c([N+](=O)[O-])cc(C)cc1[N+](=O)[O-]
    i	2.2
> CSc1cccc(NC(=S)N(Cc2ccc(C)cc2)Cc2ccccn2)c1
    i	-0.02
> CCCOc1ccc(CNC(=O)Cn2c(=O)oc3ccccc32)cc1
    i	-0.39
> COc1ccc(S(=O)(=O)N2CCCOC2CNC(=O)C(=O)NC2CCCC2)cc1 (configuration not stated)
    i	-0.35
> Cc1ccc(Nc2nc(N)c([N+](=O)[O-])c(N3CCOCC3)n2)cc1
    i	2.8
> O=C(O)c1c(-c2ccccc2)c(-c2ccccc2)nc2ccccc12
    i	-2.3
> COCc1cc(C)nc2sc(C(=O)NC3CCCCC3)c(N)c12
    i	-1.5
> CCCCCCNC(=O)C(C(=O)OCC)C1CCCCC1 (configuration not stated)
    i	0.08
> c1ccc(-c2nc(CSc3nnc(-c4cccs4)o3)cs2)cc1
    i	1
> Cc1ccc(-n2c(COc3c(C)cccc3C)nnc2SCC(=O)Nc2nccs2)cc1
    i	-1.5
> Cn1c(=O)c2c(nc(N3CCCC3)n2CC(O)CO)n(C)c1=O (configuration not stated)
    i	2.9
> Cc1cc(C)n(CC(C)(O)c2ccccc2)n1 (configuration not stated)
    i	-0.01
> NS(=O)(=O)c1ccc(NC(=S)NC(=O)c2cccnc2)cc1
    i	2.1
> CSc1nccc(Oc2ccccc2Cl)n1
    i	-2.6
> COc1ccc(CSCC(=O)Nc2ccccc2)cc1[N+](=O)[O-]
    i	0.06
> Cn1c(-c2cc3ccc(OC(=O)C(C)(C)C)cc3oc2=O)nc2ccccc21
    i	-0.01
> CC(C)(C)C(=O)N1CCN(C(c2ccccc2)c2ccccc2)CC1
    i	0.12
> Cc1nc(CCNC(=O)CC2C(=O)NCCN2CC(C)(C)C)nc2c1CCC2 (configuration not stated)
    i	-1.2
> CNc1nc(C)cc(C)c1S(=O)(=O)c1ccc(Cl)cc1
    i	0.1
> COc1ccc(OC)c(CC(NC(C)=O)C(=O)NC2CCN(C(=O)c3cccc(C)c3)CC2)c1 (configuration not stated)
    i	-0.62
> CCOC(=O)N1CCN(C(=O)CCc2ccc(S(=O)(=O)NCC(C)C)cc2)CC1
    i	2
> O=C(CN1CCN(C(=O)N2CCOCC2)CC1)Nc1ccc(Br)cc1
    i	-0.63
> CCN(CC)c1ccc(-c2n[nH]c(=S)n2-c2ccccc2)cc1
    i	0.31
> CC(=O)N1c2ccc(S(=O)(=O)N3CCC(C(=O)NC4CCC(C)CC4)CC3)cc2CC1C (configuration not stated)
    i	0.52
> CCOC(=O)NNC(=O)c1[nH]c2ccc(Br)cc2c1-c1ccccc1
    -6.8*	-0.58*
> CCOC(=O)C1=C(CNCc2ccccc2Cl)NC(=O)NC1c1ccc2c(c1)OCO2 (configuration not stated)
    i	-1
> CCOC(=O)c1cc(NC(=O)c2cccs2)ccc1N1CCOCC1
    i	-1.5
> COc1ccc(NC(=O)CSc2nnnn2C2CCCCC2)cc1
    i	1.4
> CCn1c(=O)cc(SCC(=O)N2CCN(c3ccccc3OC)CC2)c2ccccc21
    i	-1.6
> COCCNC(=O)c1cc2c3ccccc3n(C)c2s1
    i	1.4
> O=C(CCS(=O)(=O)c1ccccc1)N(CCCN1CCOCC1)c1nc2c(F)cccc2s1
    i	0.29
> CCOC(=O)c1ccc(S(=O)(=O)N2CCN(C(C)=O)CC2)cc1
    i	-0.14
> CC(/C=N/NC(=O)c1cccs1)=C\c1ccccc1
    i	-0.02
> CCCn1c(=O)c(C(=O)NCc2ccc3c(c2)OCO3)c(O)c2ccccc21
    -5.9*	-0.61*
> O=C(Cn1nc(-c2ccccc2)ccc1=O)NCc1ccc2c(c1)OCO2
    i	-0.56
> Nn1c(Cc2cccc3ccccc23)nnc1SCCOc1ccc(F)cc1
    i	2.1
> COc1ccccc1C1CCN(Cc2c(C)[nH]c3ccccc23)CC1
    i	-0.92
> CCOc1ccccc1CNC(=O)c1nn(CC)cc1[N+](=O)[O-]
    i	0.27
> COC(=O)Nc1nc(-c2ccccc2)c(C(=O)c2ccc(Cl)cc2)s1
    i	0.78

(cont.)
Order of results – KCNQ2 inh	KCNQ2 inh baseline
> CC(=O)NCCNC(=O)C1CCCCN1S(=O)(=O)c1ccccc1 (configuration not stated)
    i	0.97
> Cc1nc2ccc(Cl)cc2c(-c2ccccc2)c1CC(=O)O
    i	-0.5
> CNC(=O)C1Cc2ccccc2CN1S(=O)(=O)c1ccc(OC)c(OC)c1 (configuration not stated)
    i	0.82
> O=C(COC(=O)CCN=C1NS(=O)(=O)c2ccccc21)NC1CCCCCCC1
    i	0.17
> CC(NC(=O)COC(=O)Cc1ccc(-c2ccccc2)cc1)c1ccccc1 (configuration not stated)
    i	-2.6
> CCOc1cccc(C(=O)Nc2ccc3c(c2)OCCO3)c1
    i	-2.3
> CCN(CC)S(=O)(=O)c1ccc(NC2c3ccccc3C(=O)N2CCN2CCOCC2)cc1 (configuration not stated)
    i	-3.8
> Cn1c(CC(=O)Nc2ccccc2F)nnc1SCC(=O)Nc1nncs1
    i	-0.9
> O=C1N(Cc2ccccc2F)c2ccccc2C12OCCCO2
    i	-0.11
> CNC(=S)Nc1ccc(-c2nc3ccc(C)cc3s2)cc1
    i	0.9
> COc1ccc(-c2nc(-c3ccccc3OC)no2)cc1OC
    i	-0.24
> CC(=O)Oc1ccc(Cl)cc1/C=C/c1cc(OC(C)=O)c2ccccc2n1
    i	0.18
> COC(=O)C1C2C=CC(C3CC23)C1C(=O)OCC(=O)c1ccccc1 (configuration not stated)
    i	-0.05
> Cc1ccc(N2C(=O)CSC2c2ccccn2)cc1Cl (configuration not stated)
    i	1.4
> Cc1cc(S(=O)(=O)N2CCCC2)ccc1OCC(=O)N1CCC(C(N)=O)CC1
    i	-0.71

Profiles as entered above. Order of values: KCNQ2 inh, KCNQ2 inh baseline
Listed for CCN(CC)S(=O)(=O)c1ccc(NC2c3ccccc3C(=O)N2CCN2CCOCC2)cc1 (configuration not stated) → i, -3.8
Listed for O=C(COC(=O)CCN=C1NS(=O)(=O)c2ccccc21)NC1CCCCCCC1 → i, 0.17
Listed for CC(=O)Oc1ccc(Cl)cc1/C=C/c1cc(OC(C)=O)c2ccccc2n1 → i, 0.18
Listed for Cc1nc2ccc(Cl)cc2c(-c2ccccc2)c1CC(=O)O → i, -0.5
Listed for CNC(=S)Nc1ccc(-c2nc3ccc(C)cc3s2)cc1 → i, 0.9

(listing goes on)
Order of results – KCNQ2 inh	KCNQ2 inh baseline
> COc1ccc(CCN(C)C(=O)c2cnc(C)cn2)cc1OC
    i	0.69
> Cc1cccc(-c2noc(CCCOc3ccc(Cl)cc3Cl)n2)c1
    i	-0.13
> CCOC(=O)/C=C1\SCC(=O)N1CC(=O)Nc1ccc(C(C)C)cc1
    i	3.2
> O=C(O)CCc1ccc(-c2cccs2)n1Cc1ccco1
    i	-1.8
> O=C(NC(Cc1ccccc1)C(=O)O)/C(=C\c1ccc(Cl)cc1)NC(=O)c1ccco1 (configuration not stated)
    i	-1.2
> CC(C)C(=O)NC(=S)Nc1nnn(C)n1
    i	0.66
> COc1cccc(-c2cc(C(F)(F)F)n3nc(C(=O)N4CCCCC4c4cccnc4)cc3n2)c1 (configuration not stated)
    i	-0.07
> O=C(Nc1ccc(Cl)cc1)[C@@H]1[C@@H]2C(=O)N(c3ccc(Cl)cc3)C(=O)[C@@H]2[C@H]2C=CC=NN21
    i	-0.44
> CN1CCN(S(=O)(=O)c2ccc(NCc3ccc4c(c3)OCO4)nc2)CC1
    i	-0.15
> Cn1ccnc1CN1CCCCC1C(=O)Nc1ccc(Oc2cccnc2)cc1 (configuration not stated)
    i	-1.4
> O=C(c1ccc2nccnc2c1)N1CCN(c2ccccc2)CC1
    i	0.12
> CC(C)c1cc(-c2cc(C(=O)NCc3ccccc3)on2)nc(NC2CCCC2)n1
    i	-0.09
> C(=N\Nc1nc2ccccc2[nH]1)/c1ccccn1
    i	-0.33
> COc1cc(S(=O)(=O)NC2CCCC2)c(OC)cc1C
    i	2.9
> Cc1c(C(=O)N2CCCCCC2)c(S(=O)(=O)Nc2ccccc2F)c(C)n1C
    i	0.99
> CC1CCCCN1C(=O)C(=O)c1cn(CC(=O)N2CCCC2)c2ccccc12 (configuration not stated)
    i	0.29
> CN(C)CC/C=C1/c2ccccc2Sc2ccc(Cl)cc21
    i	-0.11
> COCC1CCN(C(=O)C2CCC(=O)N(CCc3ccc(Cl)cc3)C2)CC1 (configuration not stated)
    i	-0.29
> CC(C)Cc1ccc(C(=O)NCCOc2ccccc2)o1
    i	-0.72
> O=C(CNC(=O)c1ccco1)OCC(=O)c1ccccc1
    i	0.01
> CCOC(=O)C1(CCOC)CCN(Cc2cc3ccccc3s2)CC1
    i	0.34
> O=C(CCn1ccnc1)Nc1nc2ccccc2[nH]1
    i	0.43
> Cc1ccc(/C=C2\SC(=S)N(CCCC(=O)Nc3cccc(C(=O)O)c3)C2=O)cc1
    i	-0.32
> COc1ccc(NC(=O)CSc2nc3ccccc3c(=O)n2Cc2cccs2)c(OC)c1
    i	0.51
> CCOCCCNC(=O)C1CCC(CNS(=O)(=O)c2ccc(OC)cc2)CC1 (configuration not stated)
    i	0.1
> Cc1nn(CC(O)Cn2c3c(c4ccccc42)CCN(C)C3=O)c(C)c1Br (configuration not stated)
    i	1.6
